LANA-H2B inh = blockers of LANA interaction with H2A/H2B – biochemical, FP readout, HTS, primary screen | cell-free LANA-H2A/H2B peptide, fluorescence polarization | inhibition, % (test concentration not listed) | 0.6% of 320,000 active; in the data active means inhibition mostly above about 10%, no sharp cut-off; inactive means mostly below about 6.7%;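 further: stock transfer was 7.5 nL into about 10 µL; 0% = median of vehicle wells and 100% = median of positive control wells; one replicate is shown; the record names a cut of 25% in any replicate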
ALR H2O2 inh = inhibitors of human ALR sulfhydryl oxidase, primary screen, biochemical, H2O2 detection, HRP-luminol luminescence, single point | FAD-linked sulfhydryl oxidase ALR (Homo sapiens), P55789 | purified ALR, DTT oxidation | inhibition, % (test concentration not listed) | 3.8% of 290,000 active | AID 485317, 2010;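 active means mean and each replicate at 75% or more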;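 further: stock transfer was 7.5 nL into about 7.5 µL; 0% = neutral wells and 100% = wells with inactivated enzyme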
Beta2AR agonist = beta2AR agonists driving receptor internalization, primary screen, cell-based, FAP fluorogen, flow cytometry | Am2.2-beta2AR cells; reference of the scale not given here | Beta-2 adrenergic receptor (Homo sapiens), P07550 | response, % (concentration not given with the values) | AID 504454, 2011 | 0.43% of 340,000 active;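 active means response above a set limit, near 3 SD of response in nonfluorescent compounds, cut at about 42% in these data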;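 further: stock transfer was 100 nL into about 11 µL; a reference agonist was the positive control; negative values mostly stem from fluorescent compounds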
UCH37 inh = inhibitors of human UCH37 deubiquitinase, primary screen, biochemical, Ub-AMC cleavage, fluorescence | purified proteasome/UCH37 | inhibition, % (concentration not given with the values) | 0.33% of 330,000 active | AID 588478, 2011;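 active means mean of two replicates above 20%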;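 further: 0% = compound-free wells with enzyme and 100% = wells lacking proteasome; stock transfer was 100 nL into about 20 µL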
Target sequence (Q9Y5K5 whole entry, looked up): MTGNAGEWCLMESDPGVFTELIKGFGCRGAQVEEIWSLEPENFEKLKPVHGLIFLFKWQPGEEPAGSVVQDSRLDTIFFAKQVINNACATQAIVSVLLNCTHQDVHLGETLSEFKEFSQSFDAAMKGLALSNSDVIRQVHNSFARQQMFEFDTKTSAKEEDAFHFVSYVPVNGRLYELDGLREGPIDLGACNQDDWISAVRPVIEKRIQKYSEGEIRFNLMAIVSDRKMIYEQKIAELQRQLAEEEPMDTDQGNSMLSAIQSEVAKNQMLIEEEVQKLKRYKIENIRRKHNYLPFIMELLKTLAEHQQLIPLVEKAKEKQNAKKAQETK
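Material: human UCH37 enzyme supplied as purified proteasome complex. Measure: % inhibition of Ub-AMC cleavage fluorescence. Medium: pH 7.4 Tris-HCl (50 mM) with ovalbumin, ATP-MgCl2, DTT. Times: 30 min preincubation with enzyme, 25 min cleavage at room temperature. Detection: AMC fluorescence intensity at 355/460 nm.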
HNF4A DNA FP = change in binding of human HNF4A to DNA, primary screen, biochemical, fluorescence polarization, FITC-DNA. 1 h. Hepatocyte nuclear factor 4-alpha (Homo sapiens), P41235. activity change, % at 10 µM. 0.3% of 360,000 active; in the data active means activity change above about 30%, passing the limit was not always enough;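 further: controls were the assay level and a saturating level of protein; the project sought stronger binding though the title names inhibitors; some compounds called inactive have numbers as strong as hits; positive values seem to mean higher polarization but the record does not say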
Target sequence (P41235 whole entry, looked up): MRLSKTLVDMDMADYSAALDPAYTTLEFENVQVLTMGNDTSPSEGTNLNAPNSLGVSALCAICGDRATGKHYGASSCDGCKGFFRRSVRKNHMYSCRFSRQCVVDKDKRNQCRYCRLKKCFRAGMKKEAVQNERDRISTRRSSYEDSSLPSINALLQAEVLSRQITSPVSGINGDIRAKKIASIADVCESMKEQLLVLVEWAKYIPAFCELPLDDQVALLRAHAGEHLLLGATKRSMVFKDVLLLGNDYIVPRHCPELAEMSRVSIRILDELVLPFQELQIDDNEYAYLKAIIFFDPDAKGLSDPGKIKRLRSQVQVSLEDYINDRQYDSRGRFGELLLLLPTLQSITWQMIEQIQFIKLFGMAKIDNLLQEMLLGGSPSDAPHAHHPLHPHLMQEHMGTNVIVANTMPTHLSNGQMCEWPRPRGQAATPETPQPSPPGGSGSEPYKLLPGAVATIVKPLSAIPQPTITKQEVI
FGF22 binding = binders of human FGF22 protein, primary screen, FGF22 synaptogenesis inhibitor project, biophysical, thermal shift, single point; Fibroblast growth factor 22 (Homo sapiens), Q9HCT0; recombinant FGF22 thermal shift, SYPRO orange fluorescence; percent of sucrose octasulfate shift, DMSO zero; calls only at 9.99 µM; 1.5% of 340,000 active; AID 651658, 2012;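 active means melting point raised past a set limit in the mean and every replicate; three in four hits are not shown here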
Target sequence (Q9HCT0 whole entry, looked up): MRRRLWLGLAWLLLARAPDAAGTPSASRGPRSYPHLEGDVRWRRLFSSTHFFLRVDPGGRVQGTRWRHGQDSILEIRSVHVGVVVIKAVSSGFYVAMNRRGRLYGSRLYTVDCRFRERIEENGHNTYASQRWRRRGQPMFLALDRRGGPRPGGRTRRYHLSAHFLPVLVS
Ecoli growth = E. coli growth inhibition, primary screen, OD600. OD600 absorbance (no concentration beside the values). 0.21% of 330,000 active. Escherichia coli growth, 23 h; stronger effect = lower value;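 active means OD600 absorbance below the run mean of sample wells minus 3.6 SD, in any replicate, cut at about 0.56 in these data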;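 further: stock transfer was 300 nL into about 60 µL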
Active calls of the source: *; i = inactive; · = no result given. A portion of the library; rates above refer to the full screens.

SMILES	LANA-H2B inh	ALR H2O2 inh	Beta2AR agonist	UCH37 inh	HNF4A DNA FP	FGF22 binding	Ecoli growth
COc1ccc(NC(=O)Cn2c(C)cc(=O)c3ccccc32)cc1	3.4	-2	1	2.9	0.1	i	0.69
COCCCNC(=O)C12CCC(C)(C(=O)C1)C2(C)C (stereo unspecified)	0.1	-3	-4	-0.4	0.0	·	0.73
Cc1nc2ccccn2c1C(=O)NCCCN1CCOCC1	5.2	-14	-1	4.6	-1.0	·	0.69
Cc1sc(NC(=O)CSc2nc(N)n(CC(=O)c3ccccc3)n2)c(C#N)c1C	0.8	11	15	3.9	8.5	i	0.7
CN(C)S(=O)(=O)c1cc(NC(=O)COC(=O)Cc2cccc3ccccc23)ccc1Cl	-2.9	-1	-6	5.0	3.1	i	0.67
Cc1cc(=O)oc2cc(OC(C)C(=O)N3CCOCC3)ccc12 (stereo unspecified)	0.7	-2	1	-36	-0.7	·	0.7
O=C(O)C(Cc1c[nH]c2ccccc12)N1CCS(=O)(=O)CC1 (stereo unspecified)	-3.6	-46	-5	-1.5	0.0	i	0.7
O=c1c2cn[nH]c2nc(SCc2c(F)cccc2F)n1-c1ccc(Cl)cc1	1.7	-4	13	4.8	0.6	i	0.69
CCOC(=O)c1c(NCc2ccccc2)n[nH]c1C	·	·	-7	-1.5	1.0	i	0.65
Cc1ccc2nc(-c3cccnc3)c(Nc3ccccc3C)n2c1	-6.7	82*	-5	-14	1.0	i	0.68
Cc1ccc(NC(=O)c2ncn(CCCNCc3ccc4c(c3)OCO4)n2)cc1C	·	·	7	·	-1.0	i	·
C=CCn1c(SCC(=O)N(C)c2c(N)n(Cc3ccccc3)c(=O)[nH]c2=O)nnc1-c1ccccc1OC	1.5	-1	-5	4.4	-0.3	i	0.71
COc1ccc(Cl)cc1C(=O)NC(=S)Nc1nc(C)cc(C)n1	-6.5	-1	-17	0.8	-4.1	i	0.7
O=C(CCN1C(=O)c2ccccc2C1=O)C1=NN[C@@H]2C(=O)N(c3ccc4c(c3)OCO4)C(=O)[C@H]12	0.6	·	-5	6.9	2.0	i	0.67
Cc1ccc(Sc2cc(C(=O)c3ccccc3C(=O)O)ccc2[N+](=O)[O-])cc1	2.9	98*	-9	4.9	1.7	i	0.69
CC1C/C(=N\NC(=O)c2ccc([N+](=O)[O-])cc2)CC(C)(C)C1 (stereo unspecified)	2.3	-4	-6	·	1.1	i	·
CCSc1ccccc1C(=O)NCc1cccnc1	6.9	-13	-4	-0.3	-0.9	i	0.65
COc1ccc(/C=N/Nc2nc(Nc3ccccc3)nc(N3CCCC3)n2)cc1[N+](=O)[O-]	3.7	-2	-4	·	10	i	·
Cc1ccc(-n2c(SCC(=O)NNC(=S)Nc3ccccc3)nc3ccccc3c2=O)cc1	4.3	-3	-9	3.7	2.1	·	0.68
CC(C)c1nc(-c2ccccc2)c(-c2ccccc2)[nH]1	0.7	4	7	-1.8	-2.2	·	0.75
CCc1ccc(N/C(SCc2cccc(F)c2)=C(/C#N)C(=O)NCc2ccco2)cc1	-2.9	75	-16	3.9	-1.6	·	0.75
COCCCn1c(=S)[nH]c2ncccc2c1=O	1.4	5	4	3.1	-2.8	·	0.71
O=C(CSc1ccc2nnc(-c3ccccc3)n2n1)N1CCCc2ccccc21	0.0	·	6	4.3	-1.6	·	0.7
COC(=O)CN1C(=O)C(O)(CC(=O)c2ccc(Cl)cc2)c2ccccc21 (stereo unspecified)	2.7	-7	-21	5.9	-0.4	i	0.75
O=C(O)c1cccc(S(=O)(=O)N2CCOCC2)c1	2.6	-16	-14	3.8	-1.1	i	0.69

(continued)
SMILES	LANA-H2B inh	ALR H2O2 inh	Beta2AR agonist	UCH37 inh	HNF4A DNA FP	FGF22 binding	Ecoli growth
Cn1c(N)c(C(=O)COC(=O)CC(NC(N)=O)c2ccc(Cl)cc2)c(=O)n(C)c1=O (stereo unspecified)	·	·	10	-0.7	7.8	i	0.69
O=C(Cn1ncc2c3ccccc3n(Cc3ccccc3F)c2c1=O)NCC1CCCO1 (stereo unspecified)	2.8	2	-4	-7.5	-2.1	i	0.67
CSc1nnc2c(n1)OC(c1cn(C)c3ccccc13)N(C(C)=O)c1ccccc1-2 (stereo unspecified)	-1.7	-5	·	8.7	·	·	0.71
Cc1ccc(-c2csc(NC(=O)c3cccs3)n2)cc1	1.9	·	-8	-5.8	-0.4	·	0.72
O=C(NCC1CCCO1)C(=O)N/N=C/c1cccc(Cl)c1 (stereo unspecified)	-1.8	0	-5	·	-7.2	i	·
c1cc(-n2nnc3cnccc32)ccn1	1.9	-1	-8	4.0	0.4	·	0.64
O=c1cc(-c2ccc(O)cc2)oc2cc(O)cc(O)c12	-0.8	29	-9	3.3	4.0	i	0.64
Cc1nc2ccccc2c2oc(C(=O)N3CCc4ccccc4C3)cc12	0.0	-3	-5	0.0	-2.7	i	0.74
CCCN1C2CCCC1CC(NC(=O)c1ccc(C(C)(C)C)cc1)C2 (stereo unspecified)	-2.5	-4	-2	2.5	-2.4	i	0.7
CCc1ccc(/C=C2/C(=O)N(C)C(=S)N2CC(=O)OC)s1	-4.9	22	4	4.4	-0.9	i	·
COc1cc(/C=C(\C#N)c2nc3ccccc3[nH]2)ccc1OC(=O)c1ccco1	-2.8	-8	-5	-53	38*	i	0.73
COc1ccc(C(C)=O)cc1CSCCC#N	-0.1	3	-10	1.5	0.7	·	0.71
CNC(=O)c1ccsc1NC(=O)CCS(=O)(=O)c1ccc(C)cc1	4.6	24	0	0.2	-2.8	i	0.67
Cc1cc2ncc(-c3ccccc3)nc2cc1C	4.6	-14	-14	1.6	1.6	i	0.68
COC(=O)CCN(C(=O)c1cc([N+](=O)[O-])cc([N+](=O)[O-])c1)c1ccccn1	0.1	-30	6	0.4	-1.6	i	0.64
COc1cc(OC)cc(-c2nnc(NC(=O)Cc3ccc(F)cc3)o2)c1	4.4	4	1	2.4	0.3	i	0.66
c1c2c(cc3sc(N4CCOCC4)nc13)OCCO2	2.6	·	2	3.1	-1.5	·	0.68
O=C(CN1CCN(c2ccc(F)cc2)CC1)N1CCC(Cc2ccccc2)CC1	5.3	27	3	4.0	3.2	i	0.66
O=C(NCc1ccco1)/C(=C/c1ccc([N+](=O)[O-])cc1)NC(=O)c1ccco1	-6.8	-17	-17	8.4	6.2	i	0.7
O=C(NC(=S)Nn1cnnc1)c1ccccc1Cl	4.6	·	-3	2.4	3.7	i	0.64
CN(Cc1ccccc1)S(=O)(=O)c1ccc(Cl)c(C(=O)NCc2cccnc2)c1	-3.0	·	-2	2.5	-5.2	i	0.68
COc1ccc(N2CCN(C3CCCN(Cc4cccc(OC)c4)C3)CC2)cc1 (stereo unspecified)	-4.9	·	8	1.2	-2.2	i	0.67
COC(C(=O)Nc1cccc([N+](=O)[O-])c1)c1ccccc1 (stereo unspecified)	4.6	-1	2	4.6	0.3	i	0.68
COc1ccc(N(CC(=O)NCC2CCCO2)S(=O)(=O)c2ccccc2)cc1OC (stereo unspecified)	-3.3	0	1	2.0	1.8	i	0.68
CC(=O)OCc1nc2sc3c(c2c(=O)[nH]1)CCCC3	0.7	-2	-4	-2.4	-1.5	·	0.74

Next compounds follow:
SMILES	LANA-H2B inh	ALR H2O2 inh	Beta2AR agonist	UCH37 inh	HNF4A DNA FP	FGF22 binding	Ecoli growth
COc1ccc(COCCN2CCN(S(=O)(=O)c3ccc(C)cc3)CCC2=O)cc1	-0.7	·	·	0.7	·	i	0.7
COc1cccc(Nc2nc(CN3CCOCC3)nc3sc4c(c23)CCCC4)c1	0.7	-6	-14	2.6	2.3	i	0.68
COc1ccc(-c2oc3ccc(-c4cc(OC)c(OC)c(OC)c4)cc3c2C#Cc2ccccn2)cc1	6.5	-2	19	-488	-1.0	i	0.66
O=C(CSc1n[nH]c(-c2ccncc2)n1)Nc1ccc(Br)cc1	-6.1	-12	14	4.6	2.1	i	0.66
O=C(Nc1nc(-c2cc3ccccc3oc2=O)cs1)c1ccc(Br)o1	0.4	26	9	-61	1.3	·	0.74
CCOCCCNC(=O)CCn1nc(-c2ccc(Cl)cc2)ccc1=O	-5.7	-9	-6	3.9	-1.6	i	0.64
CN(C)S(=O)(=O)c1ccc(C(=O)NCC(=O)N/N=C/c2cccs2)cc1	2.1	5	3	·	3.0	i	·
COCC(=O)/C=C1\Sc2ccccc2N1C	-22	0	-4	19	-1.4	i	0.72
CCC(=O)Nc1ccc(NC(=O)c2ccco2)c(OC)c1	-4.9	-10	4	3.1	-2.5	·	0.67
CC(C)c1ccc(NC(=O)C(=O)c2cn(CC(=O)N3CCCCC3)c3ccccc23)cc1	-3.7	-7	11	1.5	-0.1	i	0.75
Cc1c(C(=O)Nc2cc(F)ccc2F)sc2nc3n(c(=O)c12)CCCCC3	1.6	-2	-13	-2.5	2.2	i	0.68
CN(C(=O)C1CCOC1)c1nnc(-c2cnccn2)s1 (stereo unspecified)	-2.2	3	0	-2.6	-2.6	·	0.75
CCNC(=O)N(C)c1nncnc1C(=O)NC	·	·	1	1.1	-1.6	·	0.68
COc1ccc(C(=O)N2CCCC(Nc3ccc(F)c(F)c3)C2)c(OC)n1 (stereo unspecified)	0.6	20	10	1.9	3.1	i	0.71
O=C(NN1C(=O)C2C(c3ccccc3)C=CC(c3ccccc3)C2C1=O)c1ccncc1 (stereo unspecified)	-0.1	-5	-1	2.2	-0.9	·	0.75
Cc1nc(CSc2ccc(Cl)cc2)cc(N2CC(C)OC(C)C2)n1 (stereo unspecified)	-2.7	·	-6	3.3	-2.9	i	0.71
CC(C)[C@H](NC(=O)N1CCn2c1nc1ccccc12)C(=O)NCC1CCCO1 (stereo partly specified)	3.3	-2	-2	-0.7	-2.8	i	0.67
CCOc1ccccc1NC(=O)CCNS(=O)(=O)c1cccc2nsnc12	-1.3	-5	2	1.0	-4.0	i	0.65
COc1ccc(CCn2c(N)c(C(=O)NCc3ccco3)c3nc4ccccc4nc32)cc1	0.0	19	-9	-283	9.4	i	0.73
CCN(CC)c1ccc(-c2n[nH]c(=S)n2-c2ccccc2C)cc1	-4.0	·	1	-2.5	2.6	i	0.73
Cc1ccc2sc(NC(=O)CN3C(=O)CCC3=O)nc2c1C	-1.7	-3	19	4.2	5.0	i	0.73
CC1CC(C)CN(C(=O)CN2C(=O)NC3(CCCCCC3)C2=O)C1 (stereo unspecified)	1.5	-1	17	3.6	3.2	i	0.67
O=C(/C=C/c1c(F)cccc1Cl)NCCCN1CCOCC1	-3.7	-4	-2	-0.9	-0.9	i	0.7
COc1ccc(C(=O)NCc2cnn(C)c2)cc1OC1CCN(C(C)C)CC1	3.6	-2	-4	-1.1	1.9	i	0.64
CCCCn1c(N)c(N(CC(C)C)C(=O)c2ccc3c(c2)NC(=O)C(C)S3)c(=O)[nH]c1=O (stereo unspecified)	-4.9	-4	2	2.7	-5.2	i	0.7

Gathered by group, the entries above containing a nitro group on carbon
SMILES	LANA-H2B inh	ALR H2O2 inh	Beta2AR agonist	UCH37 inh	HNF4A DNA FP	FGF22 binding	Ecoli growth
Cc1ccc(Sc2cc(C(=O)c3ccccc3C(=O)O)ccc2[N+](=O)[O-])cc1	2.9	98*	-9	4.9	1.7	i	0.69
CC1C/C(=N\NC(=O)c2ccc([N+](=O)[O-])cc2)CC(C)(C)C1 (stereo unspecified)	2.3	-4	-6	·	1.1	i	·
COc1ccc(/C=N/Nc2nc(Nc3ccccc3)nc(N3CCCC3)n2)cc1[N+](=O)[O-]	3.7	-2	-4	·	10	i	·
COC(=O)CCN(C(=O)c1cc([N+](=O)[O-])cc([N+](=O)[O-])c1)c1ccccn1	0.1	-30	6	0.4	-1.6	i	0.64
O=C(NCc1ccco1)/C(=C/c1ccc([N+](=O)[O-])cc1)NC(=O)c1ccco1	-6.8	-17	-17	8.4	6.2	i	0.7
COC(C(=O)Nc1cccc([N+](=O)[O-])c1)c1ccccc1 (stereo unspecified)	4.6	-1	2	4.6	0.3	i	0.68
